# GPT2 inhibitor: inhibitors of human GPT2 alanine aminotransferase | Recombinant GPT2, coupled pyruvate oxidase/HRP Amplex Red fluorescence | Q8TD30 | actives 0.25% (n = 100,000) | AID 1671188 | Potency, µM (top dose mostly 57.7 µM), for the others: top-dose activity change, negative = inhibition, actives largely listed as inhibitors; note: nearly all actives have a fitted effect of over 60% in size; many of its hits are not listed in these tables
# Target sequence (Q8TD30 whole entry, looked up): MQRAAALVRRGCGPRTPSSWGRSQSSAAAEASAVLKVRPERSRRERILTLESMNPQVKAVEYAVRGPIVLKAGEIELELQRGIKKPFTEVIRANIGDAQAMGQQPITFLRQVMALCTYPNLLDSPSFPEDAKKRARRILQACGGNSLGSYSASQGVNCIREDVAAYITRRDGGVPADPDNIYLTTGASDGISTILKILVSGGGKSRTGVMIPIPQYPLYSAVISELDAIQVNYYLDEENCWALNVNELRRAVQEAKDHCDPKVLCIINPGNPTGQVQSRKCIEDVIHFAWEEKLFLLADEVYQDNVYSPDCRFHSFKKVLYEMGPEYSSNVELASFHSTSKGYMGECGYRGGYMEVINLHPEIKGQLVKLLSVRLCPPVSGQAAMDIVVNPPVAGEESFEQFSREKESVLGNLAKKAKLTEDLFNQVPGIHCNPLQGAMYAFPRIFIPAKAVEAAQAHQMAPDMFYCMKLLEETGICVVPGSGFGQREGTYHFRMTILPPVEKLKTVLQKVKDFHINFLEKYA
#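 Fluorescence read-out: pyruvate from GPT2 turnover coupled to pyruvate oxidase, HRP and Amplex Red (0.2mM ThPP, 0.2U/mL PO and HRP, 50uM Amplex final). Substrates 250uM a-KG, 2mM L-alanine; enzyme 10ng/uL; 30 min RT.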
# SNCA expr inhib: SNCA gene expression inhibition | HEK-293 SNCA-luciferase knock-in, luminescence, 24 h | Potency, µM (doses to about 57.2 µM), for inactives: top-dose activity change, negative = inhibition, usual class: inhibitors | actives 0.17% (n = 140,000);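 note: plate controls were DMSO cells for no effect and cell-free wells for full effect; nearly all actives have a fitted effect of over 45% in size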
# Luciferase inh: inhibitors of firefly (Photinus pyralis) luciferase | Potency, µM (series often up to 115 µM), without a hit: at the top dose activity change, negative = inhibition, hits mostly inhibitors | purified P. pyralis luciferase, luminescence, biochemical | actives 2.5% (n = 76,000); note: nearly all actives have a fitted effect of over 65% in size
# Target sequence (P08659 whole entry, looked up): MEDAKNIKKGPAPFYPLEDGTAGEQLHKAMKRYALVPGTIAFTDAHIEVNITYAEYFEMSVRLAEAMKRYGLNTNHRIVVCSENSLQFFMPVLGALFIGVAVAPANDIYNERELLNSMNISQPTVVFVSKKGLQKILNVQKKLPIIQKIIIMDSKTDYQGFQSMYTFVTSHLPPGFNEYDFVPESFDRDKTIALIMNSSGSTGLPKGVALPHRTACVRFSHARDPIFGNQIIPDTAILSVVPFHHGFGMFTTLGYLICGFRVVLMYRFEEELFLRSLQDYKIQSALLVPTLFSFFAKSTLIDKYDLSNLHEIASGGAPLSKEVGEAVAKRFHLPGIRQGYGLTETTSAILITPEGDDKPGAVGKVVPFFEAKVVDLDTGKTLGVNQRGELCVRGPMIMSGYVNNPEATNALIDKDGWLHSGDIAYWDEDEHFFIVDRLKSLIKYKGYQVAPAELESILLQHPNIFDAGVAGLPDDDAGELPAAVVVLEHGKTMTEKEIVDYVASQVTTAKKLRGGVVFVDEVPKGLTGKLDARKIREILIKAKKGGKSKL
#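 Luminescence read by CCD imager after adding enzyme (10nM final) to wells holding compound, titrated in qHTS. Substrates 10uM each D-luciferin and ATP; buffer 50mM Tris acetate pH 7.5, 10mM Mg acetate, Tween-20, BSA.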
# SNCA viab count: reduces viability of HEK-293 SNCA reporter cells. HEK-293-SNCA-luc viability, GF-AFC fluorescence, 24 h. Potency, µM (titrated, usually from 57.1 µM), without a hit: at the highest dose activity change, negative = cytotoxicity, actives largely listed as cytotoxic. actives 0.12% (n = 150,000);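 note: 0% = DMSO-treated cells and -100% = medium-only wells without cells; nearly all actives have a fitted effect of over 30% in size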
#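 HEK-293-SNCA-luc cells (1500/well) plated 24 h, then exposed 24 h to a dilution series; GF-AFC added 30 min at 37C, fluorescence 405/540 nm; normalised to medium-only and DMSO wells, Hill fit.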
# HEK293 tox: cytotoxic compounds in HEK 293 cells. actives 6.6% (n = 94,000). HEK 293 viability, ATP luminescence (CellTiter-Glo), 48-72 h. Potency, µM (top dose mostly 115 µM), for inactives: at the top dose activity change, negative = cytotoxicity, actives largely listed as inhibitors. AID 1345083; note: nearly all actives have a fitted effect of over 60% in size
#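 250 HEK 293 cells/well; compound by pintool; incubated 48 or 72 hr at 37 degree Celsius; CellTiter-Glo added, 10 min RT, luminescence imaged.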
# NIH3T3 tox: NIH 3T3 cell cytotoxicity | NIH 3T3 viability, CellTiter-Glo ATP luminescence, 48-72 h | Potency, µM (doses to about 96.7 µM), inactives show top-dose activity change, negative = cytotoxicity, hits mostly inhibitors | actives 4.3% (n = 94,000) | AID 1345082; note: nearly all actives have a fitted effect of over 55% in size
#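 Cytotoxicity is measured as loss of cellular ATP: NIH 3T3 cells (400/well) are exposed to compound for 48 or 72 hr at 37 °C, then CellTiter-Glo luminescence is imaged after 10 min at room temperature.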
# Starred values were filed as active, the others as inactive; i = inactive; ? = inconclusive; . = no result given; & = joins results of further samples; [ ] = dose if it differs, or a comment. Calls come from the whole dose curve; as a rule, active = well fitted curve in the direction sought with a large enough effect; inconclusive = small, poorly fitted or top-dose-only effect, or another doubt; inactive = no such curve, though single readings can be large; an effect the other way counts as inactive or inconclusive. Unless noted, % is set by controls: 0 for no effect and ±100 for the full control effect; potency is the fitted concentration of half-maximal effect. Only part of the results is shown (hit frequency here may not be typical).
# Sample of the layout, twelve compounds:
No. | Compound | SNCA expr inhib | Luciferase inh | HEK293 tox | SNCA viab count | NIH3T3 tox | GPT2 inhibitor
1 | CCOC(=O)c1cccc(NC(=O)c2cc3c(=O)n(Cc4ccccc4)ccc3nc2C)c1 | 14% | . | . | 3% | . | .
2 | COc1ccc(NC(=O)N2CCC[C@H]2c2nc(-c3ccc(F)cc3)n[nH]2)c(OC)c1 | 26% | . | -5% | ? | -17% | i
3 | Cc1cc(C)cc(NC(=O)CN(C)S(=O)(=O)c2ccc3c(c2)CCC(=O)N3)c1 | -10% | . | . | -13% | . | .
4 | Cc1ccc(S(=O)(=O)NC2(C(F)(F)F)C(=O)Nc3c2c(=O)[nH]c(=O)n3-c2ccccc2)cc1 (stereo not given) | -26% | . | . | 7% | . | .
5 | CC(C)CC(=O)NC1(C(F)(F)F)C(=O)Nc2c1c(=O)[nH]c(=O)n2-c1ccccc1 (stereo not given) | -22% | . | . | 2% | . | .
6 | CC(C)(C)c1cc(C(C)(C)C)c2oc(=O)c(-c3nc4ccc(C(=O)O)cc4[nH]3)cc2c1 | 5% | . | . | ? | . | .
7 | CC(=O)c1ccc(NC(=O)C2=CC(c3ccc4c(c3)OCO4)=NS(=O)(=O)N2C)cc1 | 9% | . | . | -5% | . | .
8 | Cn1cc([C@@H](NC(=O)c2n[nH]c3c2CCC3)C2CC(O)C2)cn1 (stereo not given in full) | -24% | -10% | -2% | -6% | 1% | 3%
9 | Cc1ccsc1C(=O)NCCn1c(C)cnc1C1CCC1 | 6% | 6% | 6% | -7% | i | 4%
10 | CCOCCCNC(=O)c1cc2c(=O)n3ccccc3nc2s1 | 85%[activator] | . | . | ? | . | .
11 | COC(=O)c1c(NC(=O)COc2c(C)ccc(C)c2C)sc2c1CCC(C)C2 (stereo not given) | ? | . | . | -2% | . | .
12 | O=C(NC1(C(F)(F)F)C(=O)Nc2c1c(=O)[nH]c(=O)n2-c1ccc(Cl)cc1)c1ccccc1F (stereo not given) | 33%[activator] | . | . | -7% | . | .

# The whole of this part, previewed entries included:
No. | Compound | SNCA expr inhib | Luciferase inh | HEK293 tox | SNCA viab count | NIH3T3 tox | GPT2 inhibitor
1 | CCOC(=O)c1cccc(NC(=O)c2cc3c(=O)n(Cc4ccccc4)ccc3nc2C)c1 | 14% | . | . | 3% | . | .
2 | COc1ccc(NC(=O)N2CCC[C@H]2c2nc(-c3ccc(F)cc3)n[nH]2)c(OC)c1 | 26% | . | -5% | ? | -17% | i
3 | Cc1cc(C)cc(NC(=O)CN(C)S(=O)(=O)c2ccc3c(c2)CCC(=O)N3)c1 | -10% | . | . | -13% | . | .
4 | Cc1ccc(S(=O)(=O)NC2(C(F)(F)F)C(=O)Nc3c2c(=O)[nH]c(=O)n3-c2ccccc2)cc1 (stereo not given) | -26% | . | . | 7% | . | .
5 | CC(C)CC(=O)NC1(C(F)(F)F)C(=O)Nc2c1c(=O)[nH]c(=O)n2-c1ccccc1 (stereo not given) | -22% | . | . | 2% | . | .
6 | CC(C)(C)c1cc(C(C)(C)C)c2oc(=O)c(-c3nc4ccc(C(=O)O)cc4[nH]3)cc2c1 | 5% | . | . | ? | . | .
7 | CC(=O)c1ccc(NC(=O)C2=CC(c3ccc4c(c3)OCO4)=NS(=O)(=O)N2C)cc1 | 9% | . | . | -5% | . | .
8 | Cn1cc([C@@H](NC(=O)c2n[nH]c3c2CCC3)C2CC(O)C2)cn1 (stereo not given in full) | -24% | -10% | -2% | -6% | 1% | 3%
9 | Cc1ccsc1C(=O)NCCn1c(C)cnc1C1CCC1 | 6% | 6% | 6% | -7% | i | 4%
10 | CCOCCCNC(=O)c1cc2c(=O)n3ccccc3nc2s1 | 85%[activator] | . | . | ? | . | .
11 | COC(=O)c1c(NC(=O)COc2c(C)ccc(C)c2C)sc2c1CCC(C)C2 (stereo not given) | ? | . | . | -2% | . | .
12 | O=C(NC1(C(F)(F)F)C(=O)Nc2c1c(=O)[nH]c(=O)n2-c1ccc(Cl)cc1)c1ccccc1F (stereo not given) | 33%[activator] | . | . | -7% | . | .
13 | O=C(O)c1ccnc2cc(C(OCC3CCC(F)(F)CC3)c3ccccc3Cl)[nH]c12 (stereo not given) | . | . | . | 21% | . | i
14 | COc1ccc(-c2cc(-c3cnc4[nH]ccc4c3)cn3cncc23)cn1 | 18%[87.6 µM] | ? | ? | -7%[87.6 µM] | 40µM* | -15%[88.5 µM]
15 | COc1ccccc1-c1cc(-c2cn[nH]c2)c2cncn2c1 | ? | -7%[230 µM] | ? | -15%[87.6 µM] | 50µM* | -16%[88.5 µM]
16 | COc1cccc(-c2ccccc2NC(=O)C2CCN(c3nccnc3C)CC2)c1 | -21% | -25% | ? | ? | 22µM* | -15%
17 | COc1ccc(CNc2ncnc3c2cnn3-c2ccc(Cl)cc2)cc1 | 11% | . | . | -4% | . | .
18 | O=C(c1ccc(C(F)(F)F)cc1)N1CCC2(CC1)C(=O)Nc1ccccc12 | 3% | . | ? | -11% | -13% | 1%
19 | COc1ccccc1C(=O)N1CCC(n2c(=O)[nH]c3ccccc32)CC1 | 9% | . | -11% | 1% | -12% | 2%
20 | Cc1nn2c(-c3ccco3)ccnc2c1-c1ccc(F)cc1 | 50%[activator] | . | . | -5% | . | .
21 | Cc1cc2c(cc1S(=O)(=O)N(CCO)Cc1ccccc1)OCC(=O)N2 | 80%[activator] | . | . | 5% | . | .
22 | Cc1ccc(S(=O)(=O)c2nc(-c3ccccc3)oc2SCC(=O)NC2CCCCC2)cc1 | 12% | . | . | 9% | . | .
23 | COc1ccc(NC(=O)CCc2nnc3n(CC(C)C)c(=O)c4ccccc4n23)cc1 | ? | . | . | -7% | . | .
24 | Cc1ccc(C)c(N2CCN(C(=O)CCc3nnc4n(C)c(=O)c5ccccc5n34)CC2)c1 | -4% | . | . | -3% | . | .
25 | COc1ccc(-n2ccnc(NCc3ccccc3OC)c2=O)cc1 | -10% | . | . | 12% | . | .
26 | COCCNC(=O)CCSc1nc(-c2ccc3c(c2)OCO3)cc(C(F)(F)F)n1 | 0% | . | . | -23% | . | .
27 | Cc1cccc(NC(=O)CN(C)S(=O)(=O)c2ccc3c(c2)CCC(=O)N3)c1C | -16% | . | . | -12% | . | .
28 | N#Cc1ccc(C(=O)N2Cc3[nH]cnc3C[C@H]2c2nc(-c3ccc4c(c3)OCO4)no2)cc1 | ? | ? | i | 4% | 2% | -15%
29 | COCCNC(=O)C1=CC(c2ccc3c(c2)OCO3)=NS(=O)(=O)N1C | 6% | . | . | 1% | . | .
30 | CCc1ccc(NC(=O)c2sc(-n3nc(C)c(Cc4ccc5c(c4)OCO5)c3C)nc2C)cc1 | ? | . | . | -3% | . | .
31 | COc1ccc(-n2ncc3c(NC(C)(C)CO)ncnc32)cc1 | -50% | . | . | -11% | . | .
32 | CCOCCCNC(=O)C(=O)Nc1c2c(nn1-c1ccccc1)CSC2 | 3% | . | . | -11% | . | .
33 | COc1cc(-c2cnc3n[nH]c(-c4ccccc4)c3n2)ccn1 | 10%[87.6 µM] | -8%[172 µM] | ? | 6%[87.6 µM] | ? | -14%[88.5 µM]
34 | COc1ccc(N2CC3=C(C2=O)C(c2ccc(O)c(OC)c2)NC(=O)N3C)cc1 (stereo not given) | 14% | . | . | 4% | . | .
35 | CC(C)NS(=O)(=O)c1ccc2c(c1)nc(-c1ccc(-c3ccn[nH]3)o1)n2C(C)C | 2% | -9% | ? | -13% | ? | -3%
36 | Cc1ccc(C(=O)N2CCC(n3c(=O)[nH]c4ccccc43)CC2)cc1 | 13%[87.6 µM] | . | -26%[172 µM] | -11%[87.6 µM] | 3%[138 µM] | i
37 | O=C1c2ccccc2CN1C1CCN([S+](=O)([O-])c2cccc(C(F)(F)F)c2)CC1 | 1% | . | -4% | 2% | -7% | i
38 | O=C1Nc2c(c(=O)[nH]c(=O)n2-c2ccc(Cl)cc2)C1(NS(=O)(=O)c1ccccc1)C(F)(F)F (stereo not given) | 1% | . | . | 5% | . | .
39 | CC(=O)c1ccc(NC(=O)Cn2c(-n3nc(C)cc3C)nc(C)cc2=O)cc1 | -11% | . | . | -24% | . | .
40 | Cc1ccc(S(=O)(=O)Nc2ccc3c(c2)CCCN3C(=O)c2cccs2)cc1 | -2% | . | . | -11% | . | .
41 | COc1cccc(-c2ccccc2NC(=O)C2CCN(CC(=O)O)CC2)c1 | 29% | 1% | i | -21% | 3% | -12%
42 | CN(C)C(=O)c1nc(-c2cccc(C(F)(F)F)c2)c2cnccn12 | -1%[87.6 µM] | 0%[172 µM] | -23%[172 µM] | 10%[87.6 µM] | -1%[138 µM] | i
43 | Cc1cc(C)c(/C=C2\C(=O)Nc3ccccc32)[nH]1 | 7% | . | . | 4% | . | -2%&-6%
44 | O=C(c1[nH]nc2c1COc1ccccc1-2)N1CC(c2noc(COc3ccc(F)cc3)n2)C1 | 3% | -10% | ? | 2% | -23% | 2%
45 | CN(C)c1cccc(-c2cnc(Nc3ccc4c(c3)OCCO4)c3c2CCO3)c1 | 107%[activator][87.6 µM] | 3.5µM* | ? | -11%[87.6 µM] | -23%[138 µM] | i
46 | CCOCCCn1c(=N)c(C(=O)NCc2cccnc2)cc2c(=O)n3ccccc3nc21 | 8% | . | . | ? | . | .
47 | O=C(NCC1(c2ccccc2)CCCC1)C(=O)Nc1cccc(Br)c1 | 4% | . | . | 5% | . | .
48 | COc1cccc(C(=O)NCCc2csc(-c3ccc(Cl)cc3)n2)c1 | -1% | . | . | -7% | . | .

# Single records (already shown). Values in the order: SNCA expr inhib	Luciferase inh	HEK293 tox	SNCA viab count	NIH3T3 tox	GPT2 inhibitor
# O=C1c2ccccc2CN1C1CCN([S+](=O)([O-])c2cccc(C(F)(F)F)c2)CC1 reads 1%	.	-4%	2%	-7%	i
# O=C(c1[nH]nc2c1COc1ccccc1-2)N1CC(c2noc(COc3ccc(F)cc3)n2)C1 reads 3%	-10%	?	2%	-23%	2%

# The list goes on.
No. | Compound | SNCA expr inhib | Luciferase inh | HEK293 tox | SNCA viab count | NIH3T3 tox | GPT2 inhibitor
49 | O=C(O)c1ccc2nc(-c3cc4cc(F)ccc4oc3=O)[nH]c2c1 | 220%[activator] | . | . | 7% | . | .
50 | CN1C2CC(OC(=O)[C@H](CO)c3ccccc3)CC1C1OC12 (stereo not given in full) | 3% | . | . | 9% | . | i
51 | Fc1ccc(-c2cc(-c3cn[nH]c3)c3cncn3c2)cc1 | ? | -20%[230 µM] | ? | -10%[87.6 µM] | 45µM* | -19%[88.5 µM]
52 | Cc1ccc([S+](=O)([O-])N2CCn3c(nn(-c4ccncc4)c3=O)C2)cc1 | -10% | -7% | ? | -4% | ? | i
53 | O=C(c1ccn[nH]1)N1CCC(c2noc(COc3ccc(F)cc3)n2)CC1 | -7% | 0% | ? | -4% | ? | i
54 | O=C(c1nc(-c2ccc(Cl)cc2Cl)c2ccccn12)N1CCOCC1 | -5% | . | ? | 5% | -29% | -4%
55 | Cc1cccc(NS(=O)(=O)c2ccc3c(c2)CC(C)N3C(=O)C2CCC2)c1C (stereo not given) | ? | . | . | -8% | . | .
56 | Cc1ccc(-c2noc([C@@H]3Cc4nc[nH]c4CN3C(=O)c3ccc(F)cc3)n2)cc1 | -25%[87.6 µM] | ? | -21%[172 µM] | -9%[87.6 µM] | ? | 2%[88.5 µM]

# Screening data as filed in PubChem.
